HPGD inh = inhibitors of human 15-hydroxyprostaglandin dehydrogenase (HPGD); P15428; purified HPGD, NADH fluorescence kinetic, PGE2 substrate; Potency, µM, inactives show top-dose activity change, negative = inhibition, most hits filed as inhibitors; hit rate 4.3% among 150,000; AID 894; active = well fitted inhibition curve with a large enough effect (not every such curve was filed as active); inconclusive = small, poorly fitted or top-dose-only effect, or another doubt; inactive = no such curve, though single readings can be large or run the other way;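 also: top concentration of the series not given in the record; plate controls included wells without enzyme; inactives centre near -10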
Target sequence (P15428 whole entry, looked up): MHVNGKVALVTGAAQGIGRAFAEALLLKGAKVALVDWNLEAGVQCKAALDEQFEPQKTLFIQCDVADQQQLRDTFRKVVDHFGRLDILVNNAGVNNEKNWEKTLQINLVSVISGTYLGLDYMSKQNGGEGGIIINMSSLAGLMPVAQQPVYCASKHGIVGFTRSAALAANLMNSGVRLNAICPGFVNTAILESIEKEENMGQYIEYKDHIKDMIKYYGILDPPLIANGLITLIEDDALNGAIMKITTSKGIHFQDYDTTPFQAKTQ
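NADH formation kinetics: reaction with 30 uM PGE2 and 1 mM NAD+ (final), 20 nM enzyme, Tris-HCl pH 8 with Tween 20, after 15 min compound preincubation at room temperature. Fluorescence change, last versus first of five reads.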
Active calls of the source: *; ? = inconclusive; & = joins results of further samples. % is scaled to controls: 0 for no effect and ±100 for the full control effect; potency is read from the fitted curve at half-maximal effect. These rows are one share of the data; the hit share may differ from the screen's.

| cpd | HPGD inh | SMILES |
| --- | --- | --- |
| 1 | -7% | Nc1ncnc2c1ncn2[C@H]1C[C@H](O)[C@@H](CO)O1 |
| 2 | -6% | COc1ccc(OC)c(CNc2ccc(F)c(Cl)c2)c1 |
| 3 | -13% | CCCn1nnnc1SCC(=O)Nc1cccc(NC(=O)c2ccco2)c1 |
| 4 | -3% | Cc1c(Nc2c3c(c(C#N)c4nc5ccccc5n24)CCC3)c(=O)n(-c2ccccc2)n1C |
| 5 | -19% | CCCC12CN3CC(C)(CN(C1)C31CCCCC1)C2=O |
| 6 | -3% | CCCn1c(Cc2ccccc2)nnc1SCC(=O)N1CCOCC1 |
| 7 | ? | Cc1ccc(/C=C/c2ccc(=O)n(Cc3ccc(Cl)cc3Cl)n2)cc1 |
| 8 | -12% | O=C(Oc1ccccc1)c1cccc(N2C(=O)CCC2=O)c1 |
| 9 | -11% | O=C(CSc1nnc(Cc2ccccc2)o1)NC1CC2CCC1C2 (stereo unspecified) |
| 10 | -11% | Cc1ccc(C)c(NC(=O)COC(=O)c2cccc3c2C(=O)c2ccccc2C3=O)c1 |
| 11 | -17% | CN1CCN(c2ccc(Cl)cc2NC(=O)c2ccc(S(=O)(=O)N3CCCCCC3)cc2)CC1 |
| 12 | ? | O=C(Cn1nnc(-c2ccccc2NC(=O)c2ccco2)n1)NC1CCCCC1 |
| 13 | -10% | OCCN1CCN(CCOc2ccccc2-c2ccccc2)CC1 |
| 14 | -3% | CCCCCCC=O |
| 15 | -20% | Cc1ccc(SCC(=O)OCn2nnc3ccccc3c2=O)cc1C |

Single values from the list.
#14 @ HPGD inh: -3%
#4 @ HPGD inh: -3%
#6 @ HPGD inh: -3%
#9 @ HPGD inh: -11%

New compounds follow:
| cpd | HPGD inh | SMILES |
| --- | --- | --- |
| 16 | 1% | S=C(Nc1cccc(Cl)c1)N1CCOCC1 |
| 17 | ? | CC(C)CN1C(=O)c2ccc(NC(=O)c3ccccc3F)cc2C1=O |
| 18 | -4% | CC1(C)C=Cc2c(cc3occ(-c4ccc5c(c4)OCO5)c(=O)c3c2O)O1 |
| 19 | -6% | c1ccc(OCCCc2nc(-c3ccncc3)no2)cc1 |
| 20 | -6% | C1=C(CCNCC2CC2)CCCC1 |
| 21 | -5% | O=C(CSc1ncn[nH]1)Nc1cccc2ccccc12 |
| 22 | 0% | C=CCn1c(SCC(=O)Nc2ccccc2OC)nnc1-c1ccccn1 |
| 23 | -11% | CCc1ccc2c(c1)c(N=NC1=NC(=O)CS1)c(O)n2C |
| 24 | ? | N#CCCn1c(=O)c(-c2cccs2)nc2cnc(N3CCNCC3)nc21 |
| 25 | -13% | CC1(C)OC(=O)C(=CNc2cccc(C(=O)O)c2)C(=O)O1 |
| 26 | -14% | Cc1ccc(S(=O)(=O)/N=C(\c2ccccc2)N(C)S(=O)(=O)c2ccc(C)cc2)cc1 |
| 27 | -8% | COc1cccc(NC=C2C(=O)OC(C)(C)OC2=O)c1 |
| 28 | -2%&-10%&-6% | c1ccc2c(c1)CCCC2C1=NCCN1 (stereo unspecified) |
| 29 | -24% | CCOC(=O)N/N=C/c1ccc(OCCSc2ccc(Cl)cc2)c(OC)c1 |
| 30 | 3% | CCN(CCNC(=O)C1CCN(S(C)(=O)=O)CC1)c1ccccc1 |

Given with tabs: entries from further up.
entry	Structure	HPGD inh
24	N#CCCn1c(=O)c(-c2cccs2)nc2cnc(N3CCNCC3)nc21	?
25	CC1(C)OC(=O)C(=CNc2cccc(C(=O)O)c2)C(=O)O1	-13%
26	Cc1ccc(S(=O)(=O)/N=C(\c2ccccc2)N(C)S(=O)(=O)c2ccc(C)cc2)cc1	-14%

(more compounds)
| cpd | HPGD inh | SMILES |
| --- | --- | --- |
| 31 | -25% | C=CCSc1nc(=O)n2cccc(C)c2n1 |
| 32 | -11% | Cc1ccc(N2CCN(C(=O)N3CCCC3)CC2)cc1C |
| 33 | -10% | O=C1C2C3C=CC(C3)C2C(=O)N1CCN1CCN(S(=O)(=O)c2ccc3ccccc3c2)CC1 (stereo unspecified) |
| 34 | -15% | CCCCn1c(SC(C)C(N)=O)nc2cc(C(=O)OC)ccc2c1=O (stereo unspecified) |
| 35 | -29% | CSc1[nH]c(=O)c(C(=O)O)cc1C#N |
| 36 | -13% | Cc1ccccc1N1CCN(C(=O)c2ccc(Oc3ccc(C(F)(F)F)cn3)cc2)CC1 |
| 37 | -8% | NC(N)=NCc1cccc(I)c1 |
| 38 | -8% | CCCN1C(=O)c2ccc(C(=O)Nc3cc(C)on3)cc2C1=O |
| 39 | 1% | Cc1cc2c(c(=O)n1Cc1ccco1)C(c1ccccc1)C(C#N)=C(N)O2 (stereo unspecified) |
| 40 | -24% | Cc1ccc(-n2cc(-c3ccc([N+](=O)[O-])cc3)[nH]c2=S)c(C)c1 |
| 41 | -5% | O=C(N/N=C/c1cccc([N+](=O)[O-])c1)c1cc(-c2ccccc2)nc2ccccc12 |
| 42 | 2% | COc1ccccc1CNC(=O)C[n+]1ccccc1 |
| 43 | -12% | COc1ccc(S(=O)(=O)NCc2ccc3c(c2)OCO3)cc1C(=O)O |
| 44 | -11% | CCc1ccccc1N=C1SCC(=O)N1C |
| 45 | -11% | O=C(NCCc1nc2ccccc2[nH]1)c1ccc(Cl)c([N+](=O)[O-])c1 |
| 46 | -7% | Nc1nc(C2CCCCC2)cs1 |
| 47 | -7% | CC(C)c1ccc(NC(=O)c2cnn(-c3ccccc3)c2NC(=O)c2ccco2)cc1 |
| 48 | -14% | COC(=O)c1cc2sc(Cl)cc2n1CC(=O)N1CCCc2ccccc21 |
| 49 | 16µM* | CN1CCN(C(=O)c2ccc(CSc3nc4ccncc4n3Cc3ccc(F)cc3)cc2)CC1 |
| 50 | 0% | COCCN1C(=O)N[C@@H](CCc2ccccc2)[C@H](C(=O)OC)[C@H]1C |
| 51 | ? | C=C1C(=O)[C@]23[C@H](O)[C@H]1CC[C@H]2[C@@]12COC3(O)[C@H](O)[C@@H]1C(C)(C)CC[C@@H]2O |
| 52 | 1% | Cc1ccccc1/C=N/NC(=O)Cn1cnc([N+](=O)[O-])n1 |
| 53 | -13% | O=C1OC(c2ccco2)=N/C1=C\c1ccc(-c2cccc(C(F)(F)F)c2)o1 |
| 54 | -24% | COc1ccc(-c2cc(=O)oc3cc4occ(C)c4cc23)cc1 |
| 55 | -16% | CCOC(=O)c1c(C)sc(Sc2ccc(Cl)cc2[N+](=O)[O-])c1OC |
| 56 | -13% | COc1ccc(C(=O)NCC(=O)NCC(c2ccco2)N(C)C)cc1OC (stereo unspecified) |
| 57 | -9% | O=C(Nc1ccc(N2CCCC2)cc1)c1ccccc1F |
| 58 | -13% | COc1ccccc1-n1c(SCC(=O)Nc2ccc(C)cc2)nc(O)cc1=O |
| 59 | -5% | O=C(CN1C(=O)c2ccccc2C1=O)NC1(C(=O)O)CCCC1 |
| 60 | -4% | C=CCn1c(SCC(=O)NC2CCS(=O)(=O)C2)nc2scc(C3CC3)c2c1=O (stereo unspecified) |
| 61 | ? | CSc1nnc(-c2cc3c(s2)-c2ccccc2CC3)o1 |
| 62 | -8% | COc1ccc2c(c1)C(SCC(=O)NCCc1ccc(Cl)cc1)CC(C)(C)O2 (stereo unspecified) |
| 63 | -5% | O=C(CSc1nnc(CNC(=O)c2cccs2)o1)Nc1cccc(C(F)(F)F)c1 |
| 64 | 16µM* | O=C(/C=C/C=C/c1ccc2c(c1)OCO2)N1CCCCC1 |
| 65 | 6% | COc1ccc(C)cc1NC(=O)c1cc2cc3ccc(C)cc3nc2o1 |
| 66 | -8% | CCc1nnc(NS(=O)(=O)c2ccc(NC(=O)OC)cc2)s1 |
| 67 | -11% | COc1cccc(C2CC(c3cccs3)=NN2C(=S)Nc2ccccc2)c1OC (stereo unspecified) |
| 68 | -1% | CC1(c2ccccc2Cl)NC(=O)N(CC(=O)NC(=O)NCc2ccco2)C1=O (stereo unspecified) |
| 69 | -10% | COc1ccc(/C=C2/SC(=O)N(CCNC(=O)C3COc4ccccc4O3)C2=O)cc1 (stereo unspecified) |
| 70 | -3% | O=C1C=C(NCc2ccco2)CCC1 |
| 71 | -8% | COCCNC(=O)C(=O)NCCN1CCOCC1 |
| 72 | -14% | O=C(CCN1C(=O)c2ccccc2C1=O)Nc1ccc2c(c1)OCCO2 |
| 73 | 1% | Cc1ccc2c(c1)N(S(=O)(=O)c1ccc(F)cc1)C(C(C)(C)C)CO2 (stereo unspecified) |
| 74 | -29% | O=C(O)COc1ccc(Br)cc1/C=C1/SC(=O)N(CC(=O)N2CCCC2)C1=O |
| 75 | -10% | COc1ccc(NS(=O)(=O)c2cccc3nonc23)c(OC)c1 |
| 76 | -1% | CC(NC(=O)OCc1ccccc1)C(=O)N1CC(O)CC1C(=O)O (stereo unspecified) |
| 77 | -4% | COc1ccccc1N(CC(=O)NC(C)(C)C)C(=O)C1CSC(=O)C1 (stereo unspecified) |
| 78 | -28% | c1ccc(-n2nnc3cnccc32)cc1 |
| 79 | -20% | CC(C)Oc1ccc(CNC(=O)CC(c2ccccc2)c2cc(Cl)ccc2O)cc1 (stereo unspecified) |
| 80 | 6% | O=S(=O)([N-]c1nc2ccccc2nc1-[n+]1ccccc1)c1ccc(Cl)cc1 |
| 81 | -10% | Cc1nc(NC2=NCN(CCCN3CCOCC3)CN2)nc2c(C)cccc12 |
| 82 | -8% | CCCc1nc2c(c(=O)c3ccccc3n2C)c(=O)n1C1CCCCCC1 |
| 83 | -22% | COc1ccc(CNC(=O)CN(c2ccc(OC)cc2)S(=O)(=O)c2c(C)nn(C)c2C)cc1 |
| 84 | ? | c1ccc2c(c1)NC1(CCCC1)n1c-2nc2ccccc21 |
| 85 | ? | CC(=O)COc1cc(C)cc2oc(=O)c(C)c(C)c12 |
| 86 | -25% | O=C(NCCCN1CCOCC1)c1cc2c(s1)CSC2 |
| 87 | 9% | COc1ccc2c(CSc3nc4nc(C)cc(C)n4n3)cc(=O)oc2c1 |
| 88 | -7% | COc1ccc(C(=O)NCC23C=CC(O2)C2C(=O)N(Cc4ccccc4)C(=O)C23)cc1 (stereo unspecified) |
| 89 | -5% | CC1CCCC(NC(=O)C2CCN(S(=O)(=O)N3CCOCC3)CC2)C1C (stereo unspecified) |
| 90 | -13% | CCOc1ccc(NC(=O)CCSc2ccc3ccccc3n2)cc1 |

Ordered by SMILES length (falling): 7 of the compounds above.
| cpd | HPGD inh | SMILES |
| --- | --- | --- |
| 83 | -22% | COc1ccc(CNC(=O)CN(c2ccc(OC)cc2)S(=O)(=O)c2c(C)nn(C)c2C)cc1 |
| 80 | 6% | O=S(=O)([N-]c1nc2ccccc2nc1-[n+]1ccccc1)c1ccc(Cl)cc1 |
| 79 | -20% | CC(C)Oc1ccc(CNC(=O)CC(c2ccccc2)c2cc(Cl)ccc2O)cc1 (stereo unspecified) |
| 81 | -10% | Cc1nc(NC2=NCN(CCCN3CCOCC3)CN2)nc2c(C)cccc12 |
| 76 | -1% | CC(NC(=O)OCc1ccccc1)C(=O)N1CC(O)CC1C(=O)O (stereo unspecified) |
| 90 | -13% | CCOc1ccc(NC(=O)CCSc2ccc3ccccc3n2)cc1 |
| 86 | -25% | O=C(NCCCN1CCOCC1)c1cc2c(s1)CSC2 |

Carrying on:
| cpd | HPGD inh | SMILES |
| --- | --- | --- |
| 91 | ? | CCn1c(SCC(=O)C(C)(C)C)nnc1-c1cnccn1 |
| 92 | -22% | C/C(=N\Nc1nc(-c2ccc(C)cc2)nc2ccccc12)c1ccc([N+](=O)[O-])cc1 |
| 93 | -5% | CCOC(=O)NC1(C(F)(F)F)NC(=O)N(Cc2ccco2)C1=O (stereo unspecified) |
| 94 | -29% | COc1ccc(/C=N/Nc2nc(Nc3ccccc3)nc(N3CCCCC3)n2)cc1OC |
| 95 | -28% | O=C(NCCc1ccc(Cl)cc1)C1CCC(CNc2c(N3CCCCC3)c(=O)c2=O)CC1 (stereo unspecified) |
| 96 | -12% | CCc1ccc2[nH]c3nc(SCc4nnc(-c5ccc(C)cc5)o4)nnc3c2c1 |
| 97 | -29% | Cc1cc(C(=O)N2CCN(C/C=C/c3ccccc3)CC2)cs1 |
| 98 | 22µM* | Cc1ccc(-c2nn3c(C)nnc3s2)cc1NC(=O)c1ccc(-c2cccc(Cl)c2)o1 |
| 99 | 1% | CCCc1ccc(C(=O)N2CCN(c3ccccc3OCC)CC2)cc1 |
| 100 | -20% | O=C(/C=C/c1ccccc1)NC(=S)NNC(=O)Cc1cccs1 |
| 101 | ? | Cc1ccc(CNC(=O)CCC(=O)c2cccs2)cc1 |
| 102 | -8% | Cc1noc(C)c1C(=O)OCC(=O)NC(c1ccccc1)c1ccccc1 |
| 103 | ? | COc1ccc(Nc2nc(NCc3ccco3)nc(N/N=C/c3ccc(O)cc3)n2)cc1 |
| 104 | -15% | CC(=O)Nc1ccc(S(=O)(=O)NCCC(=O)NCCc2ccc(F)cc2)cc1 |
| 105 | -12% | Cn1c(Oc2ccccc2)c(C=O)c2ccccc21 |
| 106 | -3% | Cc1ccc(-c2nnc(Nc3ccc4c(c3)OCO4)c3ccccc23)cc1S(=O)(=O)NC(C)C |
| 107 | -7% | CCN(CC)S(=O)(=O)c1ccc2c(c1)nc(CCC(=O)OCC(=O)Nc1cc(OC)cc(OC)c1)n2C |
